Screening data deposited in PubChem BioAssay by The Scripps Research Institute Molecular Screening Center.
PAFAH1B3 inh: PAFAH1B3 (human) inhibition; actives 0.28% (n = 340,000); recombinant PAFAH1B3, FP-rhodamine probe, fluorescence polarization; Q15102; AID 492972; inhibition, % at 3.39 µM;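 active means inhibition above the screen-wide average of all tested compounds plus 3 SD, cut at about 25% in these data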;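 further: 0% = enzyme with DMSO only and 100% = wells lacking PAFAH1B3 protein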
LYPLA2 inh: blocks human lysophospholipase 2, a PME1 counter-screen; AID 2177; inhibition, % at 5.9 µM; O95372; recombinant LYPLA2, FP-Rh probe fluorescence polarization; actives 0.38% (n = 320,000);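 active means inhibition above the screen-wide mean plus 3 SD, limit set per campaign, cut at about 26% in these data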;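 further: 0% = LYPLA2 with DMSO and 100% = wells lacking LYPLA2 enzyme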
PME-1 inh: blocks human protein phosphatase methylesterase 1. Q9Y570. AID 2130. recombinant PME-1, FP-Rh probe fluorescence polarization. actives 0.53% (n = 320,000). inhibition, % at 5.9 µM;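 active means inhibition above the campaign mean of all compounds plus 3 SD, cut at about 26% in these data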;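 further: competitive labeling of PME-1 active site by serine hydrolase directed probe; 0% = PME-1 with DMSO and 100% = wells lacking PME-1 enzyme; inhibitors block probe labeling so polarization falls and inhibition rises; many of its hits are not listed in these tables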
pPAFAH inh: inhibitors of human plasma PAF acetylhydrolase (pPAFAH). Q13093. recombinant pPAFAH, FP-rhodamine probe fluorescence polarization. inhibition, % at 3.39 µM. actives 1.5% (n = 330,000). AID 463082;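 active means inhibition above the mean inhibition across the screen plus 3 SD, cut at about 25% in these data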;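 further: inhibitors block binding of the rhodamine activity-based probe so polarization drops; 0% = enzyme with DMSO and 100% = wells lacking pPAFAH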
Target sequence (Q13093 whole entry, looked up): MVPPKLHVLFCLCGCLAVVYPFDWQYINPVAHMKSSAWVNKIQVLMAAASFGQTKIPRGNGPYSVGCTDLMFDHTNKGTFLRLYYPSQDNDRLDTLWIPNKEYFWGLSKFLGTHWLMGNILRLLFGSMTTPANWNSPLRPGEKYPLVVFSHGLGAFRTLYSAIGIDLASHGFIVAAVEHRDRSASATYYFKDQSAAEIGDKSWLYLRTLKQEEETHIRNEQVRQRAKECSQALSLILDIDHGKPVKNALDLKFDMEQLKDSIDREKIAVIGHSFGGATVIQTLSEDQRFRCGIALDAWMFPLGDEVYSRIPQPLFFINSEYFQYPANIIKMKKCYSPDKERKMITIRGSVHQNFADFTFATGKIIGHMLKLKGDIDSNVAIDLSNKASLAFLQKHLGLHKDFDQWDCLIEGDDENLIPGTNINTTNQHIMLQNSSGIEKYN
PAD4 FP inh: blocks human protein arginine deiminase 4 | Q9UM07 | recombinant PAD4, RCA probe fluorescence polarization | inhibition, % at 6.36 µM | actives 0.41% (n = 330,000) | AID 485272;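 active means percent inhibition above a cutoff equal to the mean of all tested compounds plus 3 SD, cut at about 15% in these data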;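 further: 0% = PAD4 with RCA probe and DMSO and 100% = probe without PAD4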
GSTO1 counter: GSTO1 inhibition, counter-screen for RBBP9 inhibitors; actives 1.1% (n = 300,000); recombinant GSTO1, activity-based probe fluorescence polarization; P78417; AID 1974; inhibition, % at 5.96 µM;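 active means inhibition above the campaign mean inhibition plus 3 SD, cut at about 35% in these data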;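 further: 0% = GSTO1-1 with DMSO and 100% = wells lacking GSTO1-1 enzyme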
Target sequence (P78417 whole entry, looked up): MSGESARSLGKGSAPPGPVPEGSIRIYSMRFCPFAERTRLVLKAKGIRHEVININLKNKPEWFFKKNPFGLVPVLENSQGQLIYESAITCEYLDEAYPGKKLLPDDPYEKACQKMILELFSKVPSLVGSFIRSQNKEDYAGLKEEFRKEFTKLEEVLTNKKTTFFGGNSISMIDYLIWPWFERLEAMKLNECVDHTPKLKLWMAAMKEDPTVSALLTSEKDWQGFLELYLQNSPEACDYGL
PREPL inhibitor: human PREPL enzyme inhibition. Q4J6C6. recombinant PREPL, fluorescence polarization activity-based probe. inhibition, % at 5.96 µM. actives 0.68% (n = 320,000). AID 2751; in the data active means inhibition above about 43%;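 further: 0% = enzyme with DMSO and 100% = wells lacking enzyme; many of its hits are not listed in these tables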
LYPLA1 inh: LYPLA1 (human) inhibition in PME1 counter-screen. O75608. recombinant LYPLA1, FP-Rh probe fluorescence polarization. inhibition, % at 5.9 µM. actives 0.16% (n = 320,000);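 active means inhibition above the mean of all tested compounds plus 3 SD, set per campaign, cut at about 14% in these data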;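 further: inhibitors block serine hydrolase probe labeling of LYPLA1 so polarization falls; 0% = enzyme with DMSO and 100% = wells lacking LYPLA1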
Target sequence (O75608 whole entry, looked up): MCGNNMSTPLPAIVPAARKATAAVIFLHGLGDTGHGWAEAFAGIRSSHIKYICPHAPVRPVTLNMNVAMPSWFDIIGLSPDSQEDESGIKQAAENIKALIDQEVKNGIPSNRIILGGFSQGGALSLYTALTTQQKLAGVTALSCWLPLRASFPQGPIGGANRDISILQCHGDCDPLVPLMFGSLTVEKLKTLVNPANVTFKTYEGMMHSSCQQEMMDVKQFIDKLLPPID
Active calls of the source: *; . = no result given.

SMILES	PAFAH1B3 inh	LYPLA2 inh	PME-1 inh	pPAFAH inh	PAD4 FP inh	GSTO1 counter	PREPL inhibitor	LYPLA1 inh
CCOC(=O)N1CCN(C(=O)CCSc2ccc(Cl)cc2)CC1	10	0	0	-2	-1	12	16	-2
O=C(N/N=C/c1cccnc1)NC12CC3CC(CC(C3)C1)C2	2	-2	6	2	0	-5	-5	-1
CCCCCCCSc1nnc(-c2ccccc2N)c(=O)[nH]1	1	-3	-7	8	5	3	1	-3
O=S(=O)(c1ccc(Cl)cc1)N1CCN(C(=S)NCC2CCCO2)CC1 (configuration not stated)	3	-5	4	3	-4	-2	-5	0
O=C(O)c1cnn(-c2nc(-c3ccc(Cl)c(Cl)c3)cs2)c1C(F)(F)F	-2	-7	-3	8	-4	-16	-17	-14
CCC(CC)COC(=O)C1=C(C)NC(=O)NC1c1ccc(OC)cc1 (configuration not stated)	5	2	-1	-4	9	-14	5	3
COc1ccc(C(=O)O)cc1S(=O)(=O)NC(C)C12CC3CC(CC(C3)C1)C2 (configuration not stated)	5	2	-4	3	0	.	-1	-3
CCCc1cc(=O)[nH]c(SCC(=O)N2CCN(S(=O)(=O)c3ccc(C)cc3)C2)n1	3	5	5	1	3	10	13	4
CN(C)/C=C/C(=O)c1ccn(S(=O)(=O)c2ccccc2)c1	5	-1	2	12	-4	-3	-3	-2
O=C(CN1CCN(S(=O)(=O)c2ccc(Br)cc2)CC1)Nc1ccc(F)cc1F	-7	9	1	8	1	7	-53	-1
Cc1ccc(Cc2cnc(NC(=O)c3ccco3)s2)cc1	6	7	0	9	1	-4	-12	-3
CC(C)(C)OC(=O)NCCc1nnc(SCc2ccc(Cl)cc2)o1	3	3	2	5	-4	4	21	1
O=S(=O)(c1ccc(Br)cc1Cl)N1CCCN(c2ccc(C(F)(F)F)cn2)CC1	10	.	.	-5	3	.	-38	.
Cc1ccc(C)c(NC(=O)COC(=O)CSc2ccccc2)c1	2	-11	0	19	2	.	5	-5
Cc1ccc(NC(=O)CSCC(=O)Nc2cc(C(F)(F)F)ccc2N2CCOCC2)cc1	1	6	-4	2	6	10	2	3
O=C(CCN1C(=O)S/C(=C/c2ccc(F)cc2)C1=O)Nc1ccc(O)c(C(=O)O)c1	6	3	-3	5	0	3	17	-1
O=C(N[C@H]1CCC(=O)N(CCSc2ccc(Br)cc2)CC1)OCc1ccccc1	11	22	7	9	-1	.	9	8
Cc1ccc(SCC(=O)NNC(=O)c2ccc(S(C)(=O)=O)cc2)cc1	0	2	-3	5	1	8	12	5
Cc1ccc(SCC(=O)OCC(=O)NC2CCCCCC2)cc1	6	7	0	16	-9	4	12	3
O=C(Nc1nncs1)C1(c2ccccc2)CCCC1	0	10	1	-1	4	3	2	0
CC(C)(C)n1cnc2cc(NS(=O)(=O)c3ccc(Br)cc3)ccc21	5	-3	6	-5	0	2	9	-3
O=C(Nc1ccc(Cl)cc1)N1CCCN(c2ccc(C(F)(F)F)cc2[N+](=O)[O-])CC1	8	-13	-4	11	-9	-5	9	-8
Cc1ccc(SCC(=O)Nc2cc(S(=O)(=O)N3CCCCC3)ccc2C)cc1	8	.	.	-3	-2	.	11	.
O=C(N[C@H](Cc1ccc(Cl)cc1)C(=O)O)OCC1c2ccccc2-c2ccccc21	6	-1	-9	0	-2	7	-3	-2
O=C(CSCc1ccccc1Br)Nc1ccccc1	-3	37*	3	7	-4	-6	-3	16*
Next part:
SMILES	PAFAH1B3 inh	LYPLA2 inh	PME-1 inh	pPAFAH inh	PAD4 FP inh	GSTO1 counter	PREPL inhibitor	LYPLA1 inh
CC1CCN(S(=O)(=O)c2ccc3c(c2)C(=NO)c2cc(S(=O)(=O)N4CCC(C)CC4)ccc2-3)CC1	-4	-2	-5	-9	0	1	17	-4
O=C(COC(=O)C1(c2ccccc2F)CCCC1)N1CCNC1=O	5	.	.	.	.	.	.	.
Cc1cc(NC(=O)c2ccccc2)sc1C	1	-1	-1	-2	1	-5	3	-4
CCCCNC(=S)NC(=O)c1ccc(Cl)cc1Cl	-3	0	7	-2	-2	0	9	-3
O=C(O)c1ccc(COc2ccc(Cl)cc2)o1	0	7	-4	1	-4	3	-5	2
Cn1[nH]c(CSc2ccc(Cl)cc2)cc1=O	5	2	-4	10	38*	59*	9	-2
CCN(CCNS(=O)(=O)c1ccc2[nH]c(=O)sc2c1)c1ccccc1	-1	1	0	11	-3	4	-16	-2
COC(=O)[C@@]1(Cc2ccccc2)[C@H]2C(=O)N(C)C(=O)[C@H]2[C@H]2CN=C(SCc3ccc(Cl)cc3)N21	6	.	.	5	0	.	.	.
O=C(CCc1nnc(C2(c3ccc(Cl)cc3)CCC2)o1)NC1CC1	10	-3	0	-1	0	8	15	-1
CCCc1cc(=O)[nH]c(SCC(=O)Nc2cccc(S(=O)(=O)N3CCCCC3)c2)n1	11	1	3	-1	-1	.	13	0
CCOc1ccc(C(=O)CCN2CCCCCC2)cc1	-3	5	3	0	-3	-7	-1	5
CCc1noc(C)c1C(=O)N1CCN(S(=O)(=O)c2ccc(Cl)cc2)CC1	0	3	-3	4	1	.	3	2
CC(NC(=O)OCc1ccccc1)C(=O)Oc1cc2oc(=O)cc(-c3ccccc3)c2cc1Cl (configuration not stated)	3	1	11	0	-3	3	8	4
O=C(NCc1ccccc1F)c1cccc(S(=O)(=O)NCc2ccccc2)c1	0	2	9	3	-3	3	-10	0
CC(C)C[C@H](NC(=O)NCCc1ccc(Cl)cc1)C(=O)O	11	6	2	3	-1	0	6	3
CCOC(=O)c1c(NC(=O)Cn2nnc3ccccc32)sc2c1CCC(C)C2 (configuration not stated)	4	-10	-12	3	-3	1	-1	-4
COc1cc(C(=O)Nc2c(C(=O)O)[nH]c3ccc(Br)cc23)cc(OC)c1OC	8	0	31*	20	-1	2	18	12
O=C(NC1CCCC1)C1CC(c2ccc(F)cc2)=NO1 (configuration not stated)	2	-8	-2	-12	-3	2	8	-5
O=C1CN(C(=O)c2ccc(F)cc2)c2ccccc2N1	6	6	5	5	0	3	-9	2
CC(=O)Nc1ccc(S(=O)(=O)NNC(=O)COc2ccc(C(C)(C)C)cc2)cc1	1	-9	-2	4	-4	4	-5	-1
O=C(Nc1nnc(COc2ccccc2)s1)c1ccco1	0	9	-5	1	-4	-4	-9	0
CCC(=O)Nc1nnc(S(=O)(=O)N(CC)c2ccc(Cl)cc2)s1	8	0	1	0	-5	-25	-2	2
Cc1ccc(OS(=O)(=O)c2ccc(N3C(=O)CCC3=O)cc2)cc1	12	-4	0	8	-6	6	-3	2
Cc1ccc(C(=O)Nc2ccccc2C(=O)NC(Cc2c[nH]c3ccccc23)C(=O)O)cc1 (configuration not stated)	6	-11	-1	9	-5	-20	-6	-8
CS(=O)(=O)N(Cc1ccc(Cl)cc1)c1ccc(C(=O)NCCSc2ccccn2)cc1	4	-2	1	4	-2	-5	-13	-6

Entries listed above printed as active in PAD4 FP inh:
| mol | PAFAH1B3 inh | PME-1 inh | pPAFAH inh | PAD4 FP inh | PREPL inhibitor |
| --- | --- | --- | --- | --- | --- |
| Cn1[nH]c(CSc2ccc(Cl)cc2)cc1=O | 5 | -4 | 10 | 38* | 9 |

Further results follow.
SMILES	PAFAH1B3 inh	LYPLA2 inh	PME-1 inh	pPAFAH inh	PAD4 FP inh	GSTO1 counter	PREPL inhibitor	LYPLA1 inh
Cc1ccc(NC(=O)CSCC(=O)NCc2cccc(C(F)(F)F)c2)cc1	10	-1	-17	3	-4	16	-17	-4
O=S(=O)(NCCSc1ccccc1)c1ccc(F)cc1	-5	-5	-1	4	-4	2	-23	2
Cc1ccc(SCc2cc(=O)n(C)[nH]2)cc1	7	5	-1	2	24*	53*	10	-4
Cn1nc(C(F)(F)F)c(-c2ccc(F)cc2)c1NC(=O)CSCC(=O)O	5	-5	-3	-7	-2	3	2	0
O=C(CSc1nnc(SCc2ccc(Cl)cc2)s1)N1CCOCC1	13	-3	-1	8	0	7	13	0
N/C(=N\OC(=O)CCCOc1ccccc1)c1cccc([N+](=O)[O-])c1	10	1	3	1	0	1	15	3
O=S(=O)(Nc1ccccn1)c1cccc(S(=O)(=O)c2ccc(Cl)cc2)c1	-1	-3	10	4	1	14	13	-4
COc1ccccc1CCNC(=O)Cn1ccc2cc(S(=O)(=O)N3CCC(C)CC3)ccc21	8	-4	8	1	2	-9	12	-6
Cc1ccc(S(=O)(=O)N2CCN(C(=O)n3ccnc3)CC2)cc1	0	0	7	13	0	.	18	-2
CCCC(=O)Nn1cnc2c(c1=O)C1(CCCCC1)Cc1ccccc1-2	3	5	5	5	-8	1	-1	1
CC(O)(CS(=O)(=O)Cc1ccccc1)c1ccc(Cl)cc1 (configuration not stated)	7	0	1	7	2	5	3	1
O=C(O)c1ccc(Cl)c(S(=O)(=O)Nc2ccccc2Cc2ccccc2)c1	-5	0	-2	7	0	-3	-7	0
COC(=O)c1c(O)cc(C(C)(C)C)n(-c2ccc(F)cc2)c1=O	-1	-7	-2	-2	3	6	7	0
CCc1sc(NS(C)(=O)=O)nc1-c1ccccc1	7	8	0	0	-2	3	9	2
CC(=O)Oc1ccc(C(=O)N2c3ccccc3NC(=O)C2C)cc1 (configuration not stated)	11	1	-4	4	2	4	13	1
COc1ccc(/C=C/C(=O)O)cc1S(=O)(=O)N1CCC(Cc2ccccc2)CC1	2	8	4	20	1	4	-6	-1
N/C(=N\OC(=O)CSc1ccccc1)c1cccc([N+](=O)[O-])c1	1	4	6	5	1	2	16	3
O=C(CSc1ccc(Cl)cc1)NCC1CCCO1 (configuration not stated)	0	0	-1	4	-12	-4	0	2
Cc1ccc(-c2nn(CCC(=O)O)cc2/C=C\C(=O)c2ccc(Br)cc2)cc1	8	-6	-4	13	-11	-9	3	-9
O=C(Nc1nonc1-c1ccc(Cl)cc1)c1ccccc1	0	8	2	1	4	9	0	1
CC(C)=C1C2CCC1C(C(=O)Nc1sc(C)c(-c3ccc(C(C)C)cc3)c1C(N)=O)C2C(=O)O (configuration not stated)	4	-4	3	22	5	-6	17	1
CCn1c(=O)c2c(n3c(=S)[nH]nc13)-c1ccccc1CC21CCCCC1	5	-6	-2	3	-1	-7	1	-3
S=c1[nH]nc(CCc2ccc(Cl)cc2)o1	2	-1	1	2	-1	6	1	2
CCOC(=O)c1c(NC(=O)Cn2nc(C(=O)O)c3ccccc3c2=O)sc2c1CCC(C)C2 (configuration not stated)	1	-2	3	-3	-2	-1	24	1
O=C(Cc1cccs1)N1CCN(S(=O)(=O)c2ccc(Br)cc2)CC1	11	-4	10	-2	-6	5	-1	1
The list continues.
SMILES	PAFAH1B3 inh	LYPLA2 inh	PME-1 inh	pPAFAH inh	PAD4 FP inh	GSTO1 counter	PREPL inhibitor	LYPLA1 inh
CC1CCC2C(C1)Nc1c(C(=O)O)cccc1C2(C)C (configuration not stated)	7	-2	7	10	-3	12	-8	1
O=C(O)C1(c2ccccc2)CCN(S(=O)(=O)c2ccc(Br)cc2)CC1	4	5	3	0	1	4	1	1
O=C(O)CSCC(=O)Nc1ccccc1SCCS(=O)(=O)c1ccc(Cl)cc1	1	.	.	.	.	.	.	.
O=C(O)CC1=C(Nc2ccccc2)C(=O)N(c2ccccc2)C1c1ccc(F)cc1 (configuration not stated)	2	0	3	2	2	5	1	-1
O=C(CSCc1ccccc1Br)NC1CC1	11	-3	-1	5	-1	1	4	1
CC(c1ccccc1)n1c(-c2ccc(Cl)cc2)n[nH]c1=S (configuration not stated)	-1	6	4	4	-1	4	-14	8
O=C(O)c1ccc(NCc2ccc(Br)cc2)cc1	6	4	0	3	-3	0	-2	0
CC(C)(C)C1CCC2(CC1)C(C#N)=C(SCC(=O)NC1CCCCC1)NC(=O)C2C#N (configuration not stated)	1	-2	3	14	-5	-19	2	-4

These rows are one share of the data, so the mix of outcomes need not match the whole.
